Calb FLC: affects C. albicans growth with fluconazole. C. albicans CaCi-2 (fluconazole-resistant clinical isolate) + fluconazole, Alamar Blue growth, 48 h. growth inhibition, % (test concentration not listed). 300,000 tested, 0.57% active;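 active means most replicates above 75%; inconclusive means exactly half above 75%; inactive means most below 75%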;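 further: all wells also contain fluconazole at 8 µg/ml as a sub-toxic cotreatment; 0% = median of DMSO wells and 100% = median of geldanamycin control wells; wells of about 8 µL received 7.5 nL stock; the first replicate is given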
UCH37 inh: inhibitors of human deubiquitinating enzyme UCH37; purified proteasome/UCH37, Ub-AMC cleavage fluorescence; inhibition, % (test concentration not listed); 330,000 tested, 0.33% active;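 active means mean of two replicates above 20%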;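 further: 0% = compound-free wells with enzyme and 100% = wells lacking proteasome; stock transfer was 100 nL into about 20 µL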
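Material: human UCH37 enzyme supplied as purified proteasome complex / Amount: 0.15 nM proteasome as dispensed / Buffer or medium: pH 7.4 Tris-HCl (50 mM) with ovalbumin, ATP-MgCl2, DTT / Times: preincubation 30 min, reaction 25 min, room temperature / Technique: AMC fluorescence from Ub-AMC cleavage, excitation 355 nm, emission 460 nm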
A1 inh: inhibitors of the anti-apoptotic protein A1, read as caspase activation. MEF A1-2A-BIM cells, Caspase-Glo 3/7 luminescence, 3 h; percent of clofoctol response, vehicle zero. caspase activation, % (test concentration not listed). 330,000 tested, 0.066% active;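 active means over half of replicate activation scores above 10%, or exactly half above 10 with the replicate mean above 10; inconclusive means replicate mean below 10 yet half the replicates above 10; inactive means over half of replicates below 10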;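 further: wells of about 30 µL received 50 nL stock; many hits fall short of the cut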
LANA-H2B inh: blocks KSHV LANA binding to histone H2A/H2B. cell-free LANA-H2A/H2B peptide, fluorescence polarization. inhibition, % (no concentration beside the values). Q9QR71. 320,000 tested, 0.6% active. AID 2629; in the data active means inhibition mostly above about 10%, no sharp cut-off; inactive means mostly below about 6.7%;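 further: stock transfer was 7.5 nL into about 10 µL; 0% = median of vehicle wells and 100% = median of positive control wells; one replicate is shown; the record names a cut of 25% in any replicate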
Target sequence (Q9QR71 whole entry, looked up): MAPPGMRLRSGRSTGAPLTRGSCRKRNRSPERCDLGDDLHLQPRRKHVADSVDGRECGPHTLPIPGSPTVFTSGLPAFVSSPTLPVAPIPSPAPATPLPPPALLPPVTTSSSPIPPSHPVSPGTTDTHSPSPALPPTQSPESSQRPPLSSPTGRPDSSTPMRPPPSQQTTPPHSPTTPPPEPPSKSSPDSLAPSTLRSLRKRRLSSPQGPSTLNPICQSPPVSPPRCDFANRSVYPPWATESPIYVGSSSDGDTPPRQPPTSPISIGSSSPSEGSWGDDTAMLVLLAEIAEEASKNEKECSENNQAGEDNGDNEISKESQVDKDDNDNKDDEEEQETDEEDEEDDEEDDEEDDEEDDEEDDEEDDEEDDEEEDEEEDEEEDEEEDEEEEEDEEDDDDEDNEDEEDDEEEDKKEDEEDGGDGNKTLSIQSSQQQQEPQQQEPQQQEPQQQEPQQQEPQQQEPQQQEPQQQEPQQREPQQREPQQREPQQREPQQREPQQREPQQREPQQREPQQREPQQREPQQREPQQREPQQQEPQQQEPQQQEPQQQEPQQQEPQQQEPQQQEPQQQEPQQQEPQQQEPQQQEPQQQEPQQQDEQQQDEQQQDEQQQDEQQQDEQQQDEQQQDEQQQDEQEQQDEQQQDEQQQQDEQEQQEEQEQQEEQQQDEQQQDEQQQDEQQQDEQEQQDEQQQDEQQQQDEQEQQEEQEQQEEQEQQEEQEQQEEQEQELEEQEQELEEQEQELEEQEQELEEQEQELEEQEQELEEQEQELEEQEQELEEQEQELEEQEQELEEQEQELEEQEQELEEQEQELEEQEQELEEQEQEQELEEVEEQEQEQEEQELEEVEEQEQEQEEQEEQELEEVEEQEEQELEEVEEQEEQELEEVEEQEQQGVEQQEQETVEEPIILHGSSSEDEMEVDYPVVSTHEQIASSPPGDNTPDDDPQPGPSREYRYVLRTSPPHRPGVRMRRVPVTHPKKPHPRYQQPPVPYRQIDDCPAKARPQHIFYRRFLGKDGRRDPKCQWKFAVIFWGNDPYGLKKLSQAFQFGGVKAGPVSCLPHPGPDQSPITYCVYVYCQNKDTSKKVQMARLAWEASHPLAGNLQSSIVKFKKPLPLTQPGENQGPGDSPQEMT
RanGTP-Impb inh: inhibitors of RanGTP-importin-beta interaction, primary screen, biochemical, FRET, CFP-Ran, YFP-importin-beta, homogeneous; 300,000 tested, 1.1% active; inhibition, % (test concentration not listed); cell-free CFP-Ran/YFP-importin-beta FRET ratio;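 active means most replicates above 15%; inconclusive means exactly half above 15%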;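 further: 0% = DMSO wells and 100% = Ran loaded with GDP instead of GTP; wells of about 40 µL received 100 nL stock; the first replicate is given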
T cruzi repl: T. cruzi replication inhibition; T. cruzi beta-gal in NIH3T3, luminescence, 90 h; inhibition, % (no concentration beside the values); 300,000 tested, 1.4% active; AID 1885;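 active means mean inhibition across valid replicates above about 55%, limit read from the data; inconclusive means mean below that limit but half or more replicates reach it; inactive means mean below it, under half of replicates reach it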;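 further: signal also drops with host cell toxicity which is not excluded here; 0% = plate median of DMSO wells and 100% = zero luminescence signal; higher percent means less beta-gal luminescence so fewer parasites; stock transfer was 50 nL into about 50 µL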
Beta cell apopt: beta cell apoptosis inhibition | INS-1E cytokine-induced death, ATP luminescence, 48 h; percent of positive-control rescue, neutral wells zero | protection from apoptosis, % (concentration not given with the values) | 300,000 tested, 0.8% active | AID 435005;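 active means all replicates at 75% or more, or half of them and the mean; inconclusive means half reach 75% but not the mean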;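 further: 0% = cytokine-treated negative control wells and 100% = positive control rescue; higher means more ATP so stronger rescue from cytokine killing; wells of about 40 µL received 100 nL stock; the first replicate is given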
Beta2AR agonist: human beta-2 adrenergic receptor agonism by FAP | P07550 | Am2.2-beta2AR cells, FAP receptor internalization, flow cytometry; reference of the scale not given here | response, % (concentration not given with the values) | 340,000 tested, 0.43% active | AID 504454;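 active means response above a set limit, near 3 SD of response in nonfluorescent compounds, cut at about 42% in these data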;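 further: stock transfer was 100 nL into about 11 µL; a reference agonist was the positive control; negative values mostly stem from fluorescent compounds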
* = called active by the depositor.

Screening CCCOc1ccc(/C=N/NC(=O)c2c(-c3ccccc3)noc2C)cc1OC returned Calb FLC 11, A1 inh 0.6, LANA-H2B inh -2.4, RanGTP-Impb inh 7.1, T cruzi repl -4 and Beta2AR agonist -1.
CC(CCN1CCN(c2ccccc2)CC1)c1ccccc1 (stereo not given) was read as Calb FLC -21, UCH37 inh 4.2, A1 inh -2.4, LANA-H2B inh 0.5, RanGTP-Impb inh 0.0, T cruzi repl -4, Beta cell apopt -7 and Beta2AR agonist -1.
Screening COc1ccc(/C=C/C(=O)OCC(=O)N2CCc3ccccc32)cc1 returned UCH37 inh -1.0, A1 inh -0.3, LANA-H2B inh 1.9, Beta cell apopt 2 and Beta2AR agonist 1.
Screening N=c1c2c3c(sc2ncn1CCCO)CCCC3 returned Calb FLC 8, UCH37 inh 0.4, A1 inh -0.1, RanGTP-Impb inh 1.7, T cruzi repl 3, Beta cell apopt 4 and Beta2AR agonist -7.
For COc1ccc(Nc2nc(N/N=C/c3ccc(N(C)C)cc3)nc(C)c2[N+](=O)[O-])cc1 the results were Calb FLC -19, A1 inh 0.5, LANA-H2B inh 1.7, RanGTP-Impb inh 6.3, T cruzi repl -1, Beta cell apopt 4 and Beta2AR agonist 9.
`CCN(CC)S(=O)(=O)c1cccc(NC(=O)c2ccc(Sc3nncn3C)c([N+](=O)[O-])c2)c1` gave Calb FLC 1, UCH37 inh 4.0, A1 inh 0.6, LANA-H2B inh 0.1, RanGTP-Impb inh -3.4, T cruzi repl 0, Beta cell apopt -6 and Beta2AR agonist 5.
For O=C(Nc1cccc(S(=O)(=O)NC2=NCCC2)c1)c1ccc(F)cc1 the results were UCH37 inh 1.5, A1 inh -1.4, LANA-H2B inh 2.8, Beta cell apopt -5 and Beta2AR agonist 4.
`CCc1noc(C)c1C(=O)N1CC(C)OC(C)C1` (stereo not given) gave Calb FLC 6, UCH37 inh -1.8, A1 inh 1.0, LANA-H2B inh -4.1, RanGTP-Impb inh -1.4, T cruzi repl -11, Beta cell apopt 2 and Beta2AR agonist 6.
CC1CCCCN1CCCNC(=O)CN1C(=O)CSc2ccc(S(=O)(=O)N3CCOCC3)cc21 (stereo not given) was read as Calb FLC -10, UCH37 inh -2.0, A1 inh 1.1, LANA-H2B inh 2.2, RanGTP-Impb inh -1.4, T cruzi repl 0, Beta cell apopt 1 and Beta2AR agonist -1.
For CNc1ccccc1C(C)(C)c1cc(-c2ccc(F)cc2)no1 the results were Calb FLC -5, UCH37 inh 1.4, A1 inh 1.5, LANA-H2B inh 6.6, RanGTP-Impb inh 1.4, T cruzi repl 6, Beta cell apopt 0 and Beta2AR agonist 0.
For O=C(COc1ccccc1)N1CCN(c2ncccn2)CC1 the results were Calb FLC -5, UCH37 inh -2.4, A1 inh 0.8, LANA-H2B inh -9.4, RanGTP-Impb inh 2.8, T cruzi repl -3, Beta cell apopt -8 and Beta2AR agonist 3.
For O=C(N/N=C/C=N/NC(=O)c1ccco1)c1ccco1 the results were Calb FLC -4, A1 inh 0.2, LANA-H2B inh -4.1, RanGTP-Impb inh -3.3, T cruzi repl 1, Beta cell apopt 0 and Beta2AR agonist -14.

Nothing new here: 2 of the compounds above.
Screening CCCOc1ccc(/C=N/NC(=O)c2c(-c3ccccc3)noc2C)cc1OC returned Calb FLC 11, A1 inh 0.6, LANA-H2B inh -2.4, RanGTP-Impb inh 7.1, T cruzi repl -4 and Beta2AR agonist -1.
CC(CCN1CCN(c2ccccc2)CC1)c1ccccc1 (stereo not given) was read as Calb FLC -21, UCH37 inh 4.2, A1 inh -2.4, LANA-H2B inh 0.5, RanGTP-Impb inh 0.0, T cruzi repl -4, Beta cell apopt -7 and Beta2AR agonist -1.

Next part.
`C/C(CC1CC(C)OC1=O)=N\NC(N)=S` (stereo not given) gave Calb FLC -8, A1 inh -0.7, LANA-H2B inh 1.8, RanGTP-Impb inh -0.1, T cruzi repl -9, Beta cell apopt -1 and Beta2AR agonist 2.
`Cc1ccc(C)c(CN2CCC(n3nccc3NC(=O)CCCc3ccccc3)CC2)c1` gave Calb FLC -6, UCH37 inh -1.3, A1 inh 0.4, LANA-H2B inh 1.9, RanGTP-Impb inh 4.2, T cruzi repl 14, Beta cell apopt -8 and Beta2AR agonist -10.
CCc1c(C2(O)CCCCC2)[nH]c2ccc(C(F)(F)F)cc12 was read as Calb FLC -13, A1 inh 1.0, LANA-H2B inh 6.4, RanGTP-Impb inh 0.1, T cruzi repl 10, Beta cell apopt 20 and Beta2AR agonist 5.
O=C(O)C1(c2ccccc2)CCN(S(=O)(=O)c2cccs2)CC1 was read as Calb FLC -4, UCH37 inh 0.6, A1 inh 0.1, LANA-H2B inh -116, RanGTP-Impb inh -0.8, T cruzi repl -6, Beta cell apopt -6 and Beta2AR agonist 2.
CN(C)CCNC(=O)/C(=N\O)c1ccccn1 was read as Calb FLC -16, A1 inh 1.4, LANA-H2B inh -4.6, RanGTP-Impb inh -2.1, T cruzi repl -2, Beta cell apopt -2 and Beta2AR agonist 1.
Screening CCN=C1SC(C(=O)Nc2ccccc2)CC(=O)N1CC (stereo not given) returned Calb FLC 4, UCH37 inh -2.1, A1 inh -0.5, LANA-H2B inh -1.5, RanGTP-Impb inh -3.2, T cruzi repl -15, Beta cell apopt -3 and Beta2AR agonist 0.
Screening O=C(Nc1ccccc1C(F)(F)F)N1CCC(N2CCCCC2)CC1 returned Calb FLC 0, UCH37 inh 5.5, A1 inh 0.2, LANA-H2B inh -0.2, RanGTP-Impb inh -2.8, T cruzi repl 11, Beta cell apopt 0 and Beta2AR agonist 2.
CN(CC(=O)Nc1ccc(SC(F)F)cc1)C1CCCCC1 was read as Calb FLC -15, UCH37 inh 0.5, A1 inh -0.5, LANA-H2B inh 0.4, RanGTP-Impb inh -7.1, T cruzi repl 3, Beta cell apopt -9 and Beta2AR agonist 0.
Screening NC(=O)c1ccsc1NC(=O)c1ccc([N+](=O)[O-])o1 returned UCH37 inh 4.0, A1 inh 0.8, LANA-H2B inh 4.6, Beta cell apopt -21 and Beta2AR agonist 15.
Screening COc1ccc(CC(=O)NNC(=S)NCC2CC2)cc1OC returned Calb FLC -3, UCH37 inh 2.5, A1 inh 0.7, LANA-H2B inh -2.4, RanGTP-Impb inh 2.7, T cruzi repl 2, Beta cell apopt -4 and Beta2AR agonist 5.
`CC(C)OCCCN1CN(S(=O)(=O)c2ccc(Cl)cc2)c2nc3ccccc3nc21` gave Calb FLC 0, UCH37 inh 4.8, A1 inh 0.4, LANA-H2B inh 3.3, RanGTP-Impb inh 1.5, T cruzi repl 16, Beta cell apopt -4 and Beta2AR agonist 2.
For CCOC(=O)N1CCN(c2ccc(C(F)(F)F)cn2)CC1 the results were Calb FLC -24, UCH37 inh -1.6, A1 inh -0.8, RanGTP-Impb inh inconclusive, T cruzi repl -15, Beta cell apopt -1 and Beta2AR agonist -4.
CC(C)CCNC(=O)NC(=O)COC(=O)c1cc(S(=O)(=O)N2CCOCC2)ccc1N1CCCCC1 was read as Calb FLC -4, UCH37 inh -20, A1 inh -0.1, LANA-H2B inh -1.8, RanGTP-Impb inh -5.5, T cruzi repl 15, Beta cell apopt 0 and Beta2AR agonist 6.
Screening NC(=O)C1CCN(C(=O)CCC(=O)c2ccc(Br)cc2)CC1 returned Calb FLC 6, UCH37 inh -0.8, A1 inh 0.0, LANA-H2B inh -4.0, RanGTP-Impb inh 7.0, T cruzi repl 5, Beta cell apopt -2 and Beta2AR agonist -4.
COC(=O)c1cc(NC(=O)CC2CCCC2)cc(C(=O)OC)c1 was read as Calb FLC -1, UCH37 inh 3.6, A1 inh 0.6, LANA-H2B inh 4.6, RanGTP-Impb inh 2.2, T cruzi repl -1, Beta cell apopt -1 and Beta2AR agonist -1.
For O=C(O)CCC(=O)N1CCc2cc(S(=O)(=O)N3CC=C(c4ccccc4)CC3)ccc21 the results were Calb FLC -2, UCH37 inh 5.8, A1 inh 0.1, LANA-H2B inh 0.5, RanGTP-Impb inh inconclusive, T cruzi repl 1, Beta cell apopt -9 and Beta2AR agonist 4.
For Cc1cccc(N(CC(=O)NC2CCCC2)C(=O)CCCC(=O)Nc2ccccn2)c1 the results were Calb FLC 26, UCH37 inh 0.5, A1 inh 0.3, LANA-H2B inh -5.6, RanGTP-Impb inh 5.8, T cruzi repl 16, Beta cell apopt -3 and Beta2AR agonist -2.
Screening COc1ccc(Cc2c(O)nc(SCC(=O)N3CCCCCC3)[nH]c2=O)cc1 returned Calb FLC -3, UCH37 inh 4.8, A1 inh 0.3, LANA-H2B inh 7.1, RanGTP-Impb inh -1.1, T cruzi repl 5 and Beta2AR agonist 1.
For CC(C)N(C(=O)[C@H]1CC(CC(=O)NCc2cccc(C(F)(F)F)c2)C(=O)N2CCc3c([nH]c4ccccc34)[C@]12C)C(C)C (stereo not given in full) the results were UCH37 inh 4.6, A1 inh -0.6, LANA-H2B inh -3.1, Beta cell apopt 6 and Beta2AR agonist -3.
For COc1ccc(C(=O)CSc2nnc(CNc3ccc(C)cc3C)n2Cc2ccco2)cc1 the results were Calb FLC -5, UCH37 inh 4.4, A1 inh 0.9, LANA-H2B inh -1.8, RanGTP-Impb inh 5.0, T cruzi repl 18, Beta cell apopt 2 and Beta2AR agonist -3.
For C=CCn1c(SCC(=O)N(CC)C2CCS(=O)(=O)C2)nnc1-c1ccccc1 (stereo not given) the results were UCH37 inh -1.6, A1 inh -0.3, LANA-H2B inh -0.4, Beta cell apopt -2 and Beta2AR agonist 15.
`CCOc1cc(CO)c(Br)cc1OCC(=O)O` gave Calb FLC -20, UCH37 inh 3.8, A1 inh -0.1, LANA-H2B inh -0.3, RanGTP-Impb inh 6.6, T cruzi repl 1 and Beta cell apopt -15.
For O=C(CN1CCC(n2nnc3cc(F)ccc32)CC1)N1CCCc2ccccc21 the results were Calb FLC inconclusive, UCH37 inh -0.5, A1 inh -0.5, LANA-H2B inh -0.4, RanGTP-Impb inh inconclusive, T cruzi repl -1, Beta cell apopt 13 and Beta2AR agonist -6.
`Clc1ccccc1N=C1SCCS1` gave Calb FLC -4, UCH37 inh 4.3, A1 inh -0.1, LANA-H2B inh 5.3, RanGTP-Impb inh -1.7, T cruzi repl -23, Beta cell apopt -2 and Beta2AR agonist 8.
For CC1(c2ccc3ccccc3c2)NC(=O)N(CC(=O)O)C1=O (stereo not given) the results were Calb FLC -6, UCH37 inh 1.1, A1 inh 0.8, LANA-H2B inh 4.2, RanGTP-Impb inh 2.3, T cruzi repl -4, Beta cell apopt -5 and Beta2AR agonist 1.
Screening CCOC(=O)/C(=N\NC(=O)c1ccccc1)c1ccccc1 returned Calb FLC 2, A1 inh -0.5, LANA-H2B inh 0.9, RanGTP-Impb inh -5.3, T cruzi repl -12, Beta cell apopt 5 and Beta2AR agonist 2.
For N#Cc1ccc(CSc2nc(N)cc(=O)[nH]2)cc1 the results were Calb FLC -3, UCH37 inh 4.1, A1 inh 0.1, LANA-H2B inh 1.6, RanGTP-Impb inh 3.4, T cruzi repl 6, Beta cell apopt 4 and Beta2AR agonist 6.
